RVFV N-RNA FP: RVFV nucleocapsid-RNA interaction inhibition. P21700. RVFV N-RNA binding, fluorescence polarization; stronger effect = lower value. % bound, % (test concentration not listed). hit rate 0.1% among 20,000. AID 651828;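 active means between 0 and 58% in either replicate with normal brightness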;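 further: 100 nL library stock added to about 12 µL; 100% = protein and probe without compound and 0% = probe alone; numbers are from one replicate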
Target sequence (P21700 whole entry, looked up): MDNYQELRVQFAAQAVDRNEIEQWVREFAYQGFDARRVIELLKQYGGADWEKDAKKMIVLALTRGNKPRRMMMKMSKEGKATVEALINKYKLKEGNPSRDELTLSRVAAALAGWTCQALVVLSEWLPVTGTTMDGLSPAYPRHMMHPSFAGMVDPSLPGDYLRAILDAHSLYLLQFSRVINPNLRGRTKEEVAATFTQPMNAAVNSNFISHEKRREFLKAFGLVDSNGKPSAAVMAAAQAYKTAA
* marks the source's active call; other numbers are inactive results; & = joins results of further samples. An excerpt; count on the stated rates, not on these rows.

smiles | RVFV N-RNA FP
C#C[C@]1(O)CC[C@H]2[C@@H]3CCc4cc(OC)ccc4[C@H]3CC[C@@]21C | 97.5
CCOC(=O)c1nn(-c2ccccc2)c(=O)c2c(N)c(C#N)ccc12 | 87.6
CCCC[N+]1(C)[C@@H]2CC(OC(=O)[C@H](CO)c3ccccc3)C[C@H]1[C@@H]1O[C@@H]12 (stereo partly specified) | 98.4
O=C(Nc1cccc2c(=O)cc(-c3nn[nH]n3)oc12)c1ccc(OCCCCc2ccccc2)cc1 | 93.0
CCCC(=O)Nc1ccc(C(=O)NCC2CCCO2)cc1 (stereo unspecified) | 93.6
O=C1CCCCC1CNc1cccc(C(F)(F)F)c1 (stereo unspecified) | 96.1
CC(=O)NC(Nc1cc(C)ccc1C)C(=O)c1ccccc1 (stereo unspecified) | 93.7
NC(N)=NC(=O)c1nc(Cl)c(N)nc1N | 92.5&96.3&92.9
CCC1(CC)C(=O)NC(=O)N=C1N | 85.8
Cc1ccc(SCC(=O)NC2CC2)cc1 | 93.9
CC(=O)[C@@]1(O)CC[C@H]2[C@@H]3CCC4=CC(=O)CC[C@]4(C)[C@H]3CC[C@@]21C | 94.6&96.7
CC12CCC3C(CCC4CC(=O)CC43C)C1CCC2O (stereo unspecified) | 98.3

smiles | RVFV N-RNA FP
CCc1cc2c3c(c1)C1(C(=O)N3C(C)(C)CC2C)C(C#N)=C(N)N2C(=C1C#N)Nc1ccccc12 (stereo unspecified) | 97.6
O=C(CCN1C(=O)/C(=C\c2ccco2)SC1=S)NCCc1ccccc1 | 100.2
CN1C2CCC1CC(OC(=O)C(CO)c1ccccc1)C2 (stereo unspecified) | 98.5&92.4
COCC(=O)Nc1cc(F)cc(F)c1 | 96.0
O=C(O)C1C2C=CC(O2)C1C(=O)Nc1ccc(S(=O)(=O)NCCc2ccccc2)cc1 (stereo unspecified) | 93.8
COc1c(N2C[C@@H]3CCCN[C@@H]3C2)c(F)cc2c(=O)c(C(=O)O)cn(C3CC3)c12 | 94.2
Cc1nn(C)c(Cl)c1S(N)(=O)=O | 95.3
CC1(C)Cc2c(C#N)c(SCCc3ccccc3)nc(N3CCOCC3)c2CO1 | 96.8
COC(=O)c1sccc1S(=O)(=O)NCc1ccc(S(N)(=O)=O)cc1 | 91.5
S=c1nc2ccccc2c2nc(-c3cccnc3)[nH]n12 | 96.9
COc1ccc(NC(=O)C2CCCCC2)cc1 | 94.5
N#Cc1ccccc1S(=O)(=O)N1CCOCC1 | 85.9

smiles | RVFV N-RNA FP
CC1CN(c2nc(N3CCCC3)nc3ccccc23)CC(C)N1 (stereo unspecified) | 96.8
CCCN1CCC(N(C)CC(=O)OCC)CC1 | 94.3
CC(C)CC(=O)Nc1ccccc1C(N)=O | 94.6
CC12CN3CC(C)(CN(C1)C31C(=O)Nc3ccccc31)C2O (stereo unspecified) | 102.8
CCN1C(=O)/C(=C2\SC(=Nc3ccc(Cl)cc3)N(C)C2=O)c2ccccc21 | 99.3
Cc1cc(OCC(=O)NCCO)cc(C)c1Cl | 97.8
C=CCn1c(Sc2ncc(C#N)c(N)n2)nnc1-c1cccs1 | 97.1
O=C1CSCC(=O)N1c1ccc(OC(F)(F)F)cc1 | 96.0
Nc1nc2nc(-c3ccccc3)cc(-c3ccccc3)n2n1 | 92.0
Cc1ccc2c(c1Br)C(=C(C#N)C#N)C(=O)N2 | 92.8
COC(=O)c1ccccc1NC(=O)CN(c1ccccc1)S(C)(=O)=O | 86.6
O=C(CN1C(=O)c2ccccc2S1(=O)=O)c1ccc2c(c1)OCCO2 | 96.0

smiles | RVFV N-RNA FP
CCC(Cc1ccccc1)NC(C)=O (stereo unspecified) | 97.1
CCOC(=O)c1csc(-c2sccc2Br)n1 | 99.4
CCOC(=O)C1(CCCCCCOc2ccc(Cl)cc2)CO1 (stereo unspecified) | 98.7
O=C(Nc1ccc2oc(-c3c(F)c(F)c(F)c(F)c3F)nc2c1)c1cccs1 | 84.1
c1ccc(-c2nc3ccccc3nc2-c2ccccn2)nc1 | 96.5
Cc1cccc2sc(NNC(=O)c3ccc(S(=O)(=O)N4CCCC4)cc3)nc12 | 96.7
NNC(=O)c1cccnc1N | 96.1
Cc1c2cnc3nn(-c4ccccc4)c(=O)c-3cc2c(C)n1C | 94.2
CC(C)n1c(Nc2ccccc2)nc2ccccc21 | 96.0
COc1ccc(C(=O)Cn2cnc3c(cnn3C(C)(C)C)c2=O)cc1 | 89.8
C#CCN1C(=O)S/C(=C/c2ccc3c(c2)OCO3)C1=O | 99.7
c1cncc(C2CCCN2)c1 (stereo unspecified) | 98.1

smiles | RVFV N-RNA FP
CC(=O)Nc1ccc(OC(=O)COc2cccc(C)c2)cc1 | 95.7
CSc1nnc(Cn2c(=O)sc3ccccc32)n1-c1cccc(Cl)c1 | 96.2
CC(CN1c2ccccc2Sc2ccccc21)N(C)C (stereo unspecified) | 96.2&110.4&99.7
O=C(O)C1CCC(C(=O)O)C1 (stereo unspecified) | 97.2
CCCN1CCC2(CC1)C1CN(CCC)CC=C1C(C#N)=C(N)C2(C#N)C#N (stereo unspecified) | 54.4*
CCOC(=O)NC(=O)c1cn(Cc2ccco2)c(=O)[nH]c1=O | 85.5
COc1ccc(OCCOc2ccccc2F)cc1 | 99.8
CC(=O)N1N=C(c2c(-c3ccccc3)c3cc(Cl)ccc3n(C)c2=O)CC1c1ccco1 (stereo unspecified) | 91.1
O=C(CSc1ncnc2c1oc1ccccc12)Nc1ccc(F)cc1 | 98.1
CCS(=O)CCSc1nc(-c2cccs2)cc(C(F)(F)F)c1C#N (stereo unspecified) | 93.4
Cc1nc2c(o1)NC(N)=C(C#N)C21CCN(C)CC1 | 97.4
Cc1[nH]c2nc3ccccc3n2c(=O)c1CCC(C)C | 98.4

Copied from the list:
Under RVFV N-RNA FP, CC(CN1c2ccccc2Sc2ccccc21)N(C)C (stereo unspecified) shows 96.2&110.4&99.7
Under RVFV N-RNA FP, Cc1[nH]c2nc3ccccc3n2c(=O)c1CCC(C)C shows 98.4
Under RVFV N-RNA FP, CCS(=O)CCSc1nc(-c2cccs2)cc(C(F)(F)F)c1C#N (stereo unspecified) shows 93.4
Under RVFV N-RNA FP, O=C(O)C1CCC(C(=O)O)C1 (stereo unspecified) shows 97.2
Under RVFV N-RNA FP, CSc1nnc(Cn2c(=O)sc3ccccc32)n1-c1cccc(Cl)c1 shows 96.2

Next structures
smiles | RVFV N-RNA FP
COc1ccc2cc(C(=O)O)ccc2c1 | 101.6
COC(=O)C1=C(NC(=O)Cc2cccs2)CCS1 | 96.8
CN1C(=O)NC(=O)/C(=C/c2ccc(N(C)C)cc2)C1=O | 99.6
O=C(NCCCO)Nc1ccc2nc(-c3ccco3)c(-c3ccco3)nc2c1 | 59.1
Cc1cn([C@H]2C[C@H](N=[N+]=[N-])[C@@H](CO)O2)c(=O)[nH]c1=O | 98.6&93.7
CCOc1ccccc1CN1CCN(C)CC1 | 86.1
C=CCN(CC=C)C(=O)c1ccc(C)s1 | 98.3
CCn1cc(C(=O)O)c(=O)c2cc(F)c(N3CCNCC3)cc21 | 92.2
O=C(Nc1ccc(Cl)c(Cl)c1)OCc1ccco1 | 94.9
C=CCn1c(CC(=O)Nc2cccc(OC)c2)nnc1SCC(=O)NC1CCCCC1 | 90.2
O=c1c(=O)n(-c2ccc3c(c2)OCO3)ccn1Cc1ccc(F)cc1Cl | 95.5
COC1=CC(=O)C[C@@H](C)[C@]12Oc1c(Cl)c(OC)cc(OC)c1C2=O | 95.3

Next part, starting with the last two of the part before.
smiles | RVFV N-RNA FP
O=c1c(=O)n(-c2ccc3c(c2)OCO3)ccn1Cc1ccc(F)cc1Cl | 95.5
COC1=CC(=O)C[C@@H](C)[C@]12Oc1c(Cl)c(OC)cc(OC)c1C2=O | 95.3
Nc1c(Cl)cnn(-c2ccccc2)c1=O | 97.9
C#CCN[C@@H]1CCc2ccccc21 | 97.9
CSc1ncnc2c1cnn2-c1ccccc1 | 92.2
C=CCn1c(SCC(=O)Nc2cccc(OC)c2)nnc1C(C)NC(=O)c1ccccc1 (stereo unspecified) | 100.3
CC(=O)Oc1cccc(C)c1 | 101.6
CC(C)C[C@@H](NC(=O)[C@H](Cc1ccccc1)NC(=O)c1cnccn1)B(O)O | 95.8
C=CCN=C=S | 99.5
CCCc1cc(=O)[nH]c(SCC(=O)NC2CCCC2)n1 | 92.5
CCOc1ccc(N2C(=O)CC(Sc3nc(O)c(CC)c(=O)[nH]3)C2=O)cc1 (stereo unspecified) | 93.4
O=C1c2ccccc2C(O)(c2ccccc2)N1c1ccc2c(c1)OCCO2 (stereo unspecified) | 97.1
CC(C)C(=O)NCc1n[nH]c(=O)c2ccccc12 | 91.4
CCn1cc(-c2n[nH]c(=S)n2C)c2ccccc21 | 96.1

smiles | RVFV N-RNA FP
C#CCSc1nc(C(OC)OC)cc(=O)[nH]1 | 86.6
CCOC(=O)C1C(=O)OC2(CCCC2)C1C(=O)OCC (stereo unspecified) | 109.4
COc1ccc(N2CC(NC(=O)N3CCCC3)CC2=O)cc1 (stereo unspecified) | 96.9
O=C1NN(c2ccc(Cl)c(Cl)c2)C(=O)/C1=C/C=C/c1ccco1 | 91.9
O=C1NC(=O)c2cc(Nc3ccccc3)c(Nc3ccccc3)cc21 | 85.2
Cc1nnc(SCCn2c(Br)nc3c2c(=O)[nH]c(=O)n3C)s1 | 94.6
O=C(c1cccs1)c1coc2c1cc(O)c1ccccc12 | 94.6
CCOC(=O)Cn1cc(Cl)ccc1=O | 90.3
CCC(=O)c1ccc(OCC(O)CN2CCOCC2)cc1 (stereo unspecified) | 102.8
COC(=O)c1oc2c(c1C)C1(CCC2)SCCS1 | 95.5
CC(/C=C/c1ccccc1)NC(N)=O (stereo unspecified) | 97.0
CC(=O)SCC(C)C(=O)Nc1ccccc1 (stereo unspecified) | 98.7

smiles | RVFV N-RNA FP
COc1cc2cc(C3CC(c4ccco4)=NN3C(C)=O)c(Cl)nc2cc1OC (stereo unspecified) | 90.0
Cc1ccsc1C=Nc1ccc(C(N)=O)cc1 | 89.8
N#Cc1ccc(-c2cccc(Cl)c2Cl)o1 | 91.1
O=C(C1CCCO1)N1CCN(c2ccc(Cl)c(Cl)c2)CC1 (stereo unspecified) | 92.5
O=C(Cc1ccc(Cl)cc1)NCC1COC2(CCCC2)O1 (stereo unspecified) | 97.1
COC(=O)c1c(N=CN(C)C)c(C#N)c2n1CCCC2 | 101.0
CCC(C(=O)N1CCCCC1C)c1ccccc1 (stereo unspecified) | 96.5
C#CCSc1nc(-c2cccs2)cc(C(F)(F)F)c1C#N | 89.4
c1ccc(-c2oc3ncn4ncnc4c3c2-c2ccccc2)cc1 | 99.3
Cc1cc(C(=O)Nc2ccc(Cl)cc2)no1 | 97.5
COc1ccc(C(C)C)cc1S(=O)(=O)N1CCCCC1C (stereo unspecified) | 92.9
Cc1cc(=O)n(CC(C)C)c(O)c1C#N | 100.6

Six compounds picked at random from the list so far:
smiles | RVFV N-RNA FP
Cc1cc(C(=O)Nc2ccc(Cl)cc2)no1 | 97.5
C#CCSc1nc(-c2cccs2)cc(C(F)(F)F)c1C#N | 89.4
O=C(Cc1ccc(Cl)cc1)NCC1COC2(CCCC2)O1 (stereo unspecified) | 97.1
Cc1ccsc1C=Nc1ccc(C(N)=O)cc1 | 89.8
N#Cc1ccc(-c2cccc(Cl)c2Cl)o1 | 91.1
c1ccc(-c2oc3ncn4ncnc4c3c2-c2ccccc2)cc1 | 99.3

Next section
smiles | RVFV N-RNA FP
COC(=O)c1ccccc1NC(=O)CN1CCC(C)CC1 | 92.5
CN(C)S(=O)(=O)CC12CCC(CC1=O)C2(C)C (stereo unspecified) | 97.1
N#CCSc1ccc(-c2ccco2)nn1 | 89.4
CCn1nnc2c(NC3CCCCC3)ncnc21 | 100.9
CO/N=C(/C(=O)NC1C(=O)N2C(C(=O)O)=C(CSc3nnnn3C)CSC12)c1csc(N)n1 (stereo unspecified) | 98.3
CCCN(CCC)C1CCc2ccc(O)cc2C1 (stereo unspecified) | 96.4
Cc1cccc(NC(=O)CC2C(=O)NCCN2C(=S)Nc2ccccc2)c1 (stereo unspecified) | 102.1
CCCN1CCC(NN2CCOCC2)CC1 | 91.2
CN(C)/C=N/S(=O)(=O)c1cc(Cl)sc1Cl | 112.2
CCCCNc1nc(=S)nc(N(C)C)[nH]1 | 102.1
NC(=O)N1C(=O)C=CC1=O | 94.3
N#CCCN(Cc1ccco1)S(=O)(=O)c1ccccc1 | 96.4

smiles | RVFV N-RNA FP
CCc1nc(SCC(=O)NCc2ccccc2)c2c(=O)n(C)c(=O)n(C)c2n1 | 96.2
COc1cc2c(cc1OC)CN(CC1=CCC3CC1C3(C)C)CC2 (stereo unspecified) | 97.2
COC(=O)c1ccsc1NC(=O)C1=COCCO1 | 93.6
CCOc1nc(NCCc2ccc(OC)c(OC)c2)nc(N2CCN(c3ccc(OC)cc3)CC2)n1 | 96.1
CC(C)(C)c1ccc(-c2nc(C#N)c(NCc3ccccc3)o2)cc1 | 94.4
Cc1ccc(C(=O)C2N=C(N)OC2c2ccccc2)cc1 (stereo unspecified) | 98.6
COc1ccc(NC(=O)CSCC(=O)O)c(N2CCOCC2)n1 | 93.7
COC(=O)c1ccc(S(=O)(=O)N(CCO)Cc2ccccc2)n1C | 100.6
NC(=O)CSc1nc(=O)n(Cc2cccnc2)c2c1CCC2 | 106.4
Cc1ccc(C(=O)Nc2cccc(N3CCCC3)c2)cc1 | 90.9
CC(c1ccccc1)N1C(=O)CC(Nc2ccc(N(C)C)cc2)C1=O (stereo unspecified) | 94.4
C/C(N)=C(/C#N)C(NC(=O)C1CCCCC1)(C(F)(F)F)C(F)(F)F | 85.4

smiles | RVFV N-RNA FP
CC1Cn2c(nnc2-c2cc3ccccc3cc2O)S1 (stereo unspecified) | 101.1
Cc1ccc(NC(=O)NCCCN2CCOCC2)cc1 | 93.0
COC(=O)c1csc(S(=O)(=O)NCc2nn(-c3ccccc3)nc2C)c1OC | 113.7
COc1cccc(C2Nc3ccccc3C(=O)N2NS(=O)(=O)c2ccc(C)cc2)c1O (stereo unspecified) | 98.9
CC(=O)OCC(=O)[C@@]1(O)CC[C@H]2[C@@H]3CCC4=CC(=O)CC[C@]4(C)[C@H]3[C@@H](O)C[C@@]21C | 94.7&94.1
O=C(Nc1ccc(CCC(=O)N2CCCC2)cc1)c1cc2ccccc2o1 | 94.9
